2A firefly: lowers the firefly signal of an FMDV 2A StopGo reporter. Potency, µM (highest dose often 57.5 µM), without a hit: top-dose signal change, negative = less light. AID 1745856. HEK cells with a luciferase reporter of 2A StopGo recoding. 120,000 compounds, 0.23% hits; active = well fitted falling curve with a large enough effect; inconclusive = small, poorly fitted or top-dose-only effect; inactive = no such curve, though single readings can be large or run the other way; further: nearly all actives have a fitted effect of over 60% in size; overnight with compound
2A Renilla: FMDV 2A StopGo reporter, Renilla signal. HEK cells with a luciferase reporter of 2A StopGo recoding. Potency, µM (top dose mostly 57.5 µM), for the others: at the highest dose signal change, negative = less light. 120,000 compounds, 0.32% hits; active means well fitted falling curve with a large enough effect; inconclusive means small, poorly fitted or top-dose-only effect; inactive means no such curve, though single readings can be large or run the other way; further: nearly all actives have a fitted effect of over 55% in size; overnight with compound
An asterisk follows results filed as active; u = inconclusive; & = joins results of further samples; [ ] = another dose, or the depositor's remark. On the % scale 0 is the no-effect control and ±100 the full control effect; potency means the concentration at half of the fitted maximal effect. An unsorted share of the library, and some 0.55% of all compounds hit somewhere here.

SMILES | 2A firefly | 2A Renilla
COc1ccc(N2CCN(C(=O)C(CC(C)C)NS(=O)(=O)c3ccc4nc(C)sc4c3)CC2)cc1 (stereo not drawn) | -10% | 9%
CC(=O)Nc1cc(C)c(I)cc1C | 5% | -3%
COc1ccc(-c2nc3c(c(SCC(=O)N(C)c4ccccc4)n2)Cc2cc(C)ccc2O3)cc1 | -19% | -5%
COC(=O)C1=CN(Cc2cccs2)C=C(C(=O)OC)C1c1ccc(C(F)(F)F)cc1 | 2% | 18%
CCN(CC)S(=O)(=O)c1ccc(-c2nc(C#N)c(N3CCCCCC3)o2)cc1 | -7% | 55%[activator]
COc1ccc(-c2c(-c3ccc(OCCN4CCOCC4)cc3O)n[nH]c2C)cc1 | -8% | -7%
CNC(=O)c1ccc2c(c1)N(Cc1cc(C)ccc1C)C(=O)c1ccccc1S2 | 0% | -12%
COc1ccc(C(=O)OC(C)C(=O)Nc2c(C)n(C)n(-c3ccccc3)c2=O)cc1 (stereo not drawn) | 5% | -6%
CCOc1cccc(Cn2c(=O)c3sccc3n(CC(=O)N(C)C3CCCCC3)c2=O)c1 | 5% | -4%
CC(OC(=O)c1cnc(Cl)c(Cl)c1)C(=O)NC(C)(C#N)C(C)C (stereo not drawn) | 0% | -3%
Cc1ccc2oc(C(=O)N3CCN(CC(=O)N4CCCCCC4)CC3)cc(=O)c2c1 | -7% | -10%
Clc1ccc(Cl)c(-c2ccc(CNC3CN4CCC3CC4)o2)c1 (stereo not drawn) | -9% | -13%
CCN(CC)c1ccc(Nc2nc(-c3c(C)nc4sccn34)cs2)cc1 | 15% | 2%
CC(Sc1n[nH]c(-c2cccs2)n1)C(=O)Nc1ccc(F)cc1F (stereo not drawn) | -2% | 6%
O=C(c1cc(=O)[nH]c2ccccc12)N1CCC(Cc2ccccc2)CC1 | 1% | 5%
Cc1ccccc1OCCCn1c(-c2ccc(Cl)cc2)nc2ccccc2c1=O | 7% | -7%
CCc1ccccc1NC(c1nnc(-c2cccc(F)c2)o1)c1ccc(F)cc1Cl (stereo not drawn) | -11% | 0%
O=C(NC1CCCCCC1)c1cc2c(s1)-c1ccsc1CC2 | 0% | -25%
COc1ccc(/C=C(/C#N)c2nc(-c3cc4ccccc4oc3=O)cs2)cc1 | 0% | 5%
Cc1cc(Nc2ccccc2C)c2cccc(C)c2n1 | -7%&-15% | -19%&-23%
Cc1ccccc1CSc1nc2c([nH]c3ccccc32)c(=O)n1-c1ccccc1 | 21% | -8%
O=C(/C=C/c1ccccc1)Nc1ccc(OCCc2ccccc2)cc1 | 8% | 0%
COc1ccccc1N1CCN(S(=O)(=O)CCNC(=O)C2CC(=O)N(c3ccccc3)C2)CC1 (stereo not drawn) | 11%&-21% | 9%&-2%
Cc1cccc(OCC(O)Cn2nnc(-c3cccnc3)n2)c1 (stereo not drawn) | -1% | -7%
CCc1ccccc1NC(=O)Cn1c(=O)n(Cc2ccc(OC)cc2)c(=O)c2oc3ccccc3c21 | -7% | -12%

Overlap with the part before: 4 compounds, followed by the next part.
SMILES | 2A firefly | 2A Renilla
O=C(/C=C/c1ccccc1)Nc1ccc(OCCc2ccccc2)cc1 | 8% | 0%
COc1ccccc1N1CCN(S(=O)(=O)CCNC(=O)C2CC(=O)N(c3ccccc3)C2)CC1 (stereo not drawn) | 11%&-21% | 9%&-2%
Cc1cccc(OCC(O)Cn2nnc(-c3cccnc3)n2)c1 (stereo not drawn) | -1% | -7%
CCc1ccccc1NC(=O)Cn1c(=O)n(Cc2ccc(OC)cc2)c(=O)c2oc3ccccc3c21 | -7% | -12%
CSc1cccc(NC(=O)c2cccc(N3CCCS3(=O)=O)c2)c1 | 91%[activator] | -3%
Cc1cccc(N2/C(=N/c3nc(C)cc(C)n3)NC(=O)CC2C(=O)O)c1 (stereo not drawn) | 11% | 7%
CCOC(=O)c1noc2nc(C)n(CC(=O)Nc3cc(Cl)c(OC)cc3OC)c(=O)c12 | -8% | -16%
O=C(O)CCC(=O)NCCCN1CCOCC1 | -3% | -3%
Cn1c(SCc2csc(-c3ccc4c(c3)OCO4)n2)nnc1C1CCCCC1 | 39%[activator] | 21%
Cc1ccc(-c2cnc(CCC(=O)NCC(CC(C)C)N3CCOCC3)o2)cc1C (stereo not drawn) | -2% | 0%
Cc1ccccc1Nc1cc(C(=O)NCCCN2CCN(c3cccc(Cl)c3)CC2)c2ccccc2n1 | -29% | 8%
CCN(CC)c1ccc(NC(=O)Cn2nc(C)n3cccc3c2=O)c(C)c1 | -31% | -23%
CC1CCC2(CC1)NC(=O)N(NC(=O)CCCc1c[nH]c3ccccc13)C2=O (stereo not drawn) | u | u
CCc1nnc2sc(-c3ccc(NC(=O)C(C)(C)C)cc3)nn12 | 190%[activator] | 12%
Cc1ccc(/C=C2\CC(c3ccccc3)c3ccccc3C2=O)cc1 (stereo not drawn) | -8% | -20%
CNc1c(NC(=O)NC2CCCC2)c(=O)oc2ccccc12 | 7% | -2%
CC(C)CNC(=O)NC(=O)CN(C)CCCc1ccccc1 | -5% | 18%
NS(=O)(=O)c1ccc(N/N=C/c2cccc(Cl)c2Cl)c([N+](=O)[O-])c1 | u | u
Cc1ccc(C)c(N2CCN(c3nc4ccc(C(=O)c5ccccc5)cc4n4cnnc34)CC2)c1 | -7% | -6%
CS(=O)(=O)c1ncc(Cl)c(C(=O)Nc2c(C(=O)Nc3ccccc3)oc3ccccc23)n1 | -8% | -3%
O=C1CC(c2ccc(Cl)cc2)Sc2nc(-c3ccc(F)cc3)nn21 (stereo not drawn) | 3% | 1%
Cc1ccc(NC(=O)c2ccc(OCc3ccccc3)cc2)cc1 | 16% | 0%
COc1ccc(Nc2cc(C(=O)NCCCN(C)C3CCCCC3)c3ccccc3n2)c(OC)c1 | -24% | 4%
CCOc1ccccc1CNC(=O)C1CCN(S(=O)(=O)c2c(C)noc2/C=C/c2ccc(C)cc2)CC1 | -6% | -7%
Cc1ccc(S(=O)(=O)CC(=O)Nc2cc(C)on2)cc1 | -2% | 4%
CC(C)c1ccc(-c2noc(SCC(=O)N3CCCCC3)n2)cc1 | 12% | -14%
CCNC(=S)N/N=C1\CCCCC1C (stereo not drawn) | 0% | 10%
CCCCCCCCCCCCS(=O)CC(O)CCl (stereo not drawn) | 3% | -16%
CC(=O)CCc1c(C)nc2c(Cl)cccc2c1Cl | 24% | -8%
SMILES | 2A firefly | 2A Renilla
O=C(O)CCNS(=O)(=O)c1ccc(OC(F)(F)F)cc1 | -3% | -2%
O=C(Nc1cccc2cccnc12)NC1CCCCCC1 | 152%[activator] | 32%[activator]
Cn1c(=O)c2c(nc(NCC(O)c3ccccc3)n2C)n(C)c1=O (stereo not drawn) | -3% | -12%
COc1ccc(NC(=O)c2cccc(-n3cccc3)c2)c(OC)c1 | 85%[activator] | 22%
Cc1ccc(NC(=O)CCn2c(=O)c3cccn3c3ccccc32)cc1Cl | -13% | 4%
c1ccc2c(N3CCOCC3)nc(N3CCOCC3)nc2c1 | -4% | -8%
Nc1nccnc1C(=O)NCCc1cccc(Cl)c1 | 162%[activator] | 11%
COc1cc(OC)c(OC)cc1CNC(=O)c1cc(Br)ccc1O | u | u
Cc1cccc(NC(=O)c2ccccc2NC(=O)CSc2ncnc3ccccc23)c1 | 161%[activator] | 5%
CCN(C(=O)c1cc2c(s1)-c1c(C)cccc1OC2)c1cc(C)ccc1C | -17% | 12%
O=C(Nc1ccc2c(c1)CCCN2C(=O)c1cccs1)c1c(F)cccc1F | 0% | u
C#CCNC(=O)CN1CCN(C(=O)CC2CCCC2)CC1 | 6% | 13%
O=C(CSc1nc(=O)[nH]c2c1CCC2)NCc1ccccc1Cl | -22% | -3%
Cc1ccc(NC(=O)Cn2nnc3sc4c(c3c2=O)CCCC4)c(C)c1 | -14% | -7%
Cc1ccc2oc(C(=O)N3CCN(C(c4ccccc4)c4ccccc4)CC3)cc(=O)c2c1 | -14% | -16%
CSC(C)C(=O)NC(C)c1ccccc1Br (stereo not drawn) | 13% | -3%
CCCOc1ccc2c(c1)sc1ncc(NC(=O)c3ccc(C(C)(C)C)cc3)c(=O)n12 | 44%[activator] | -2%
Cc1cccc(C(=O)NCCC(=O)N2CCCCCC2)c1 | 66%[activator] | 6%
Cc1cccc(C(=O)Nc2ccc(Cl)cc2C(F)(F)F)c1C | 81%[activator] | 15%
Cc1ccc(C(=O)C2CC(=O)Nc3c2c(C)nn3-c2ccc(Br)cc2)s1 (stereo not drawn) | 18% | 15%
CC(C)CNC(=O)Nc1cc(C(=O)NCc2ccc(C(C)C)cc2)ccc1N1CCCC1 | 29% | 42%[activator]
O=C(O)CC(c1cccnc1)c1c[nH]c2ccccc12 (stereo not drawn) | -3% | -4%
Cc1cc(C)c(NCC(=O)NNC(=O)c2ccccn2)c(C)c1 | 33%[activator] | -4%
COc1ccc(C)cc1N1CC(C(=O)Nc2ccc(S(=O)(=O)Nc3ncccn3)cc2)CC1=O (stereo not drawn) | -1% | -9%
COc1ccc(NS(=O)(=O)c2cc(-c3n[nH]c(=O)c4c3CCCC4)ccc2C)c(OC)c1 | 4% | 96%[activator]
SMILES | 2A firefly | 2A Renilla
Cc1nc2ccccc2c(C)c1CC(=O)NCC1CC1 | 6% | 1%
CCc1c(C)sc2nc(NCCO)n3nc(-c4ccco4)nc3c12 | 55%[activator] | 56%[activator]
CCN=C1NN=C(c2cc(C)n(C3CC3)c2C)CS1 | 0% | -18%
Cn1nc(CC(=O)OCC(=O)NC2CC2)c2ccccc2c1=O | -1% | -12%
O=c1c(S(=O)(=O)c2ccccc2)cn(Cc2ccc(F)cc2)c2cc(N3CCOCC3)c(F)cc12 | 0% | -14%
C#CC(C)(CC)NC(=O)c1cnn2c(C(F)F)cc(-c3ccccc3OC)nc12 (stereo not drawn) | 10% | 15%
CC(C)CCNC(=O)NCCn1c(-c2ccccc2)nc2ccccc21 | 15% | 8%
CCOc1ccc(NC(=O)Cn2ncn3nc(-c4cc(C)ccc4C)cc3c2=O)cc1 | 38%[activator] | 10%
CN(CC(=O)NC(=O)NC1CCCCC1)c1ccc2ccccc2c1 | 15% | -1%
COc1ccc(NC(=O)CCc2c(C)c3ccc(C)cc3oc2=O)cc1O | 0% | 1%
CC(=O)c1ccc(N2CCN(S(=O)(=O)c3ccc4[nH]c5c(c4c3)CCCCC5)CC2)cc1 | 57%[activator] | 44%[activator]
CCCS(=O)(=O)c1nc(S(=O)(=O)c2ccc(C)cc2)c(NCc2ccccc2Cl)s1 | 37%[activator] | 217%[activator]
COc1cccc(C2C(C(=O)Nc3ccc(Cl)cc3)=C(C)Nc3nc4ccccc4n32)c1OC (stereo not drawn) | 23% | -8%
COC(=O)C1CN(Cc2ccccc2)CCS(=O)(=O)N1Cc1ccc(OC)cc1 (stereo not drawn) | 7% | 127%[activator]
Cc1ccc(CNC(=O)Cn2c(=O)n(-c3ccc(C)c(F)c3)c(=O)c3sc4ccccc4c32)cc1 | -7% | -14%
Nc1c(-c2nc(-c3ccccc3)cs2)c2ccccn2c1C(=O)c1ccc2c(c1)OCO2 | 35%[activator] | -1%
Cc1ccc(CN2C(=O)c3cc(-c4ccccc4)nn3CC2(C)C(=O)NCc2ccccc2)o1 (stereo not drawn) | 0% | 62%[activator]
CC(C)(C)c1ccc(NC(=O)CCc2nc3ccccc3c(=O)[nH]2)cc1 | -7% | -11%
Cc1ccc2oc(-c3cccc(NC(=O)c4ccc(N5CCC(C)CC5)c([N+](=O)[O-])c4)c3)nc2c1 | 60%[activator] | -12%
Cc1nc(-c2cccc(F)c2)sc1CCNC(=O)CC(C)(C)C | 180%[activator] | 8%
CCCN1CCN(CCO)CC1 | 18% | -3%
O=C(CCC1N=C2c3ccccc3N=C(SCc3ccc(Cl)cc3)N2C1=O)NCCc1ccccc1 (stereo not drawn) | 2% | -12%
O=C(NCc1ccc2c(c1)CCN2C(=O)c1ccncc1)c1ccc(Cl)cc1 | -26% | 16%
NC(=O)N/N=C/c1ccc([N+](=O)[O-])o1 | -12% | 1%
COc1ccc(C(=O)Nc2nc(-c3nnn(-c4ccc(C(C)C)cc4)c3C)ns2)cc1 | 38%[activator] | -3%

Whole records from above. Values in the order: 2A firefly	2A Renilla
Cc1ccc(CNC(=O)Cn2c(=O)n(-c3ccc(C)c(F)c3)c(=O)c3sc4ccccc4c32)cc1 in the list: -7%	-14%
CCN=C1NN=C(c2cc(C)n(C3CC3)c2C)CS1 in the list: 0%	-18%
COC(=O)C1CN(Cc2ccccc2)CCS(=O)(=O)N1Cc1ccc(OC)cc1 (stereo not drawn) in the list: 7%	127%[activator]
COc1ccc(NC(=O)CCc2c(C)c3ccc(C)cc3oc2=O)cc1O in the list: 0%	1%
Cc1ccc(CN2C(=O)c3cc(-c4ccccc4)nn3CC2(C)C(=O)NCc2ccccc2)o1 (stereo not drawn) in the list: 0%	62%[activator]

Another view of part of the listing above.
Sequence of screens: 2A firefly, 2A Renilla
CN(CC(=O)NC(=O)NC1CCCCC1)c1ccc2ccccc2c1
  15%, -1%
CNc1c(NC(=O)NC2CCCC2)c(=O)oc2ccccc12
  7%, -2%

Next records.
SMILES | 2A firefly | 2A Renilla
CCOC(=O)c1c(NC(=O)CCCOc2ccc(C)cc2)sc2c1CCC(C)C2 (stereo not drawn) | u | -9%
Cc1ccc(-c2cn3c(n2)sc2cc(C(=O)NCCCc4ccccc4)ccc23)c(C)c1 | 31%[activator] | -12%
Cc1ccc(-c2cc(C(F)(F)F)n3ncc(-c4ccccc4)c3n2)cc1 | -9% | -8%
COC(=O)c1c(C)[nH]c(C)c1-c1ccc(Cl)cc1 | 7% | -9%
Fc1ccc(Nc2nc(-c3ccc(F)cc3)cs2)cc1 | 224%[activator] | 35%[activator]
Cc1ccc(C(=O)/C=C/c2ccc(-c3ccc(Cl)c(Cl)c3)o2)cc1 | -9% | -4%
CN(C)CCNC(=O)C1CCN(c2ncnc3c2nc2n3CCCCC2)CC1 | 3% | 10%
CCc1ccc(C(=O)NCc2ccnc(N3CCN(C)CC3)c2)o1 | -1% | -12%
